# RE007 growth inh = less growth of the S. pombe RE007 Vpr strain. Potency, µM (titrated, usually from 92.2 µM), for the others: at the highest dose activity change, negative = less growth. actives 0.21% (n = 360,000). S. pombe RE007 Vpr strain, BacTiter-Glo ATP luminescence, 24 h; control for the full effect not named in the record; active = well fitted falling curve with a large enough effect; inconclusive = small, poorly fitted or top-dose-only effect; inactive = no such curve, though single readings can be large or run the other way;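 further: on the % scale 0 is the no-effect control and ±100 the full control effect; nearly all actives have a fitted effect of over 50% in size; the assay follows cell death caused by Vpr and the record does not say whether a fall means rescue or toxicity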
#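 Fission yeast strain RE007, carrying one chromosomally integrated HIV-1 vpr copy, was seeded at OD 0.01 in PMG+AL medium with 23 nL pinned compound. After 24 h at 30 °C and 99% humidity, viability was read by BacTiter-Glo luminescence.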
# MARV entry inh = inhibitors of Marburg virus binding or cell entry; Marburg virus pseudotyped entry inhibition, cell reporter; control for the full effect not named in the record; about a third of the inactives were read at about 46 µM; Potency, µM (top dose mostly 37.8 µM), inactives show top-dose activity change, negative = inhibition, hits mostly inhibitors; actives 1.8% (n = 300,000); AID 540276; active = well fitted inhibition curve with a large enough effect; inconclusive = small, poorly fitted or top-dose-only effect, or effect the other way; inactive = flat fitted curve, though single readings scatter; tested in HEK293 cells; about a fifth of its hits are not listed in these tables; further: on the % scale 0 is the no-effect control and ±100 the full control effect; luciferase read-out
# LASV entry inh = Lassa virus entry inhibition | Lassa virus pseudotype entry inhibition, cell reporter; control for the full effect not named in the record | Potency, µM (doses to about 37.9 µM), for inactives: at the top dose activity change, negative = inhibition, usual class: inhibitors | actives 1.2% (n = 300,000) | AID 540256; active means well fitted inhibition curve with a large enough effect; inconclusive means small, poorly fitted or top-dose-only effect, or effect the other way; inactive means flat fitted curve, though single readings scatter; tested in HEK293 cells; further: on the % scale 0 is the no-effect control and ±100 the full control effect; nearly all actives have a fitted effect of over 50% in size; luciferase read-out
# 2A StopGo = lowers the luciferase signal of an FMDV 2A StopGo reporter | Potency, µM (top dose mostly 57.9 µM), for the others: at the top dose signal change, negative = less light | actives 1.2% (n = 410,000) | human cells with a luciferase reporter of 2A StopGo recoding; control for the full effect not named in the record; active = well fitted falling curve with a large enough effect; inconclusive = small, poorly fitted or top-dose-only effect; inactive = no such curve, though single readings can be large or run the other way; tested in HEK293T cells; further: on the % scale 0 is the no-effect control and ±100 the full control effect; nearly all actives have a fitted effect of over 45% in size; luciferase light after 4 h
# Cruzain noTriton = inhibitors of Trypanosoma cruzi cruzain without detergent; P25779; purified cruzain, Z-FR-AMC fluorescence, no detergent; Potency, µM, for the others: max response, negative = inhibition, usual class: inhibitors; actives 2.3% (n = 200,000); AID 1476; active means well fitted curve in the direction sought with a large enough effect; inconclusive means small, poorly fitted or top-dose-only effect, or another doubt; inactive means no such curve, though single readings can be large; an effect the other way counts as inactive or inconclusive;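 further: plate controls were enzyme without inhibitor for no effect and buffer without enzyme for full effect; nearly all actives have a fitted effect of over 40% in size; top concentration of the series not given in the record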
# Target sequence (P25779 123-467 limits assumed): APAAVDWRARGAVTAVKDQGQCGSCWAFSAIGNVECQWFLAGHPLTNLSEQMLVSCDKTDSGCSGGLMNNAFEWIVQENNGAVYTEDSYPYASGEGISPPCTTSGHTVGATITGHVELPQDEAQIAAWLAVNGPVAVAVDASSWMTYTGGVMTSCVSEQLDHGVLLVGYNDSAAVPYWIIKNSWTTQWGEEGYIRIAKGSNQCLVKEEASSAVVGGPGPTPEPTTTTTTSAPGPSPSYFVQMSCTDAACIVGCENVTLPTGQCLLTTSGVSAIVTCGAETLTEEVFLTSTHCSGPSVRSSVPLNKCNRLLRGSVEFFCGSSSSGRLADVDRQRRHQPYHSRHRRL
#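 Purified cruzain at 1.5 nM, pre-incubated 15 min with compound at room temperature in 100 mM sodium acetate pH 5.5, 5 mM DTT, 0.00005% Triton X-100. Reaction started with 2 uM Z-FR-AMC; AMC fluorescence increase over 60 s gives rate.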
# Cruzain Triton = inhibitors of Trypanosoma cruzi cruzain with detergent; P25779; purified cruzain, Z-FR-AMC fluorescence, 0.01% Triton; Potency, µM, without a hit: max response, negative = inhibition, most hits filed as inhibitors; actives 0.43% (n = 200,000); active means well fitted curve in the direction sought with a large enough effect; inconclusive means small, poorly fitted or top-dose-only effect, or another doubt; inactive means no such curve, though single readings can be large; an effect the other way counts as inactive or inconclusive;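 further: plate controls were neutral wells for no effect and buffer without enzyme for full effect; nearly all actives have a fitted effect of over 40% in size; top concentration of the series not given in the record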
#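 Detergent-containing run (0.01% Triton X-100) in acetate buffer pH 5.5 with 5 mM DTT: enzyme at 1.5 nM final, 15 min compound preincubation at room temperature, then 2 uM Z-FR-AMC substrate. Activity taken as 60 s fluorescence increase at 360/450 nm.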
# NS1 inh = inhibitors of influenza NS1 protein function; S. cerevisiae slowed by influenza A NS1, growth recovery by OD600; Potency, µM (doses to about 46.1 µM), for inactives: at the highest dose activity, positive = more growth; actives 0.4% (n = 270,000); AID 2326; further: actives are rising curves; nearly all actives have a fitted effect of over 50% in size
#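 Recovery from NS1-induced slow growth read by OD600 in budding yeast switched to galactose assay medium (pH 6.0, -URA) at 1:100 dilution. Compound 23 nl per well; the matching strain lacking NS1 serves as control.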
# SARS PLP yeast = SARS-CoV PLP inhibition in yeast; S. cerevisiae expressing SARS-CoV PLpro, growth rescue; control for the full effect not named in the record; Potency, µM (titrated, usually from 32.9 µM), without a hit: top-dose activity, positive = growth rescue; actives 0.19% (n = 330,000); AID 485353; further: 0% is about no effect; nearly all actives have a fitted effect of over 55% in size; growth read by luminescence after 48 h
# Numbers without * were called inactive; ? = inconclusive; · = not tested or not shown; & = joins results of further samples; [ ] = remark or other dose. Unless noted, the call rests on the fitted dose curve; in most records, active means well fitted rising curve with a large enough effect; inconclusive means small, poorly fitted or top-dose-only effect; inactive means no such curve, though single readings can be large or run the other way. Potency means the concentration at half of the fitted maximal effect.
compound	RE007 growth inh	MARV entry inh	LASV entry inh	2A StopGo	Cruzain noTriton	Cruzain Triton	NS1 inh	SARS PLP yeast
CCc1ccc(C(=O)NC(CCSC)C(=O)OC)cc1 (centres undefined)	-11%	-1%	21%	36%[activator]	·	·	·	-5%
O=C(NC1CC1)C1CC(=O)N(c2cccc(Cl)c2)C1 (centres undefined)	-6%	·	·	-6%	·	·	28%	1%
CCOc1ccc(CC(=O)NCCS(=O)(=O)N2CCN(c3ccccc3)CC2)cc1	4%	12%	?	-18%	·	·	·	2%
COc1ccccc1N(CC(=O)NCCSc1ccc(Cl)cc1)S(C)(=O)=O	1%	-31%	-6%	-4%	·	·	5%	0%
CCOC(=O)c1sc(NC(=O)c2ccc(Cl)s2)cc1C	-6%	·	·	38%[activator]	?	-2.4%	-105%	0%
Cn1c(C(O)c2ccc(Br)cc2)nc(Cl)c1Cl (centres undefined)	1%	7%[46.1 µM]	-20%[46.1 µM]	1%	·	·	-2%	-1%
O=C(CSc1nnc(NC(=O)c2ccccc2F)s1)NC1CC1	17%	19%[46.1 µM]	0%	30%	·	·	5%	5%
Cc1ccc2[nH]c(-c3ccccc3)c(CN(C)C)c(=O)c2c1	-14%	-4%	-3%	25%	0%	-1.4%	5%	7%
Cc1nnc(SCc2nnc(-c3cccs3)o2)n1C	-11%	·	·	8%	·	·	8%	2%
Cc1cccc(NC(=O)CCn2cnnn2)c1	-2%	14%	0%	-3%&3%	8%	-0.7%	·	-5%
O=C(Nc1nccs1)c1c(O)c2cccc3c2n(c1=O)CCC3	·	·	·	·	-12%	-1.4%	-14%	-3%
COc1cccc(Cn2c(C3CC3)nc3ccc(NC(=O)c4ccco4)cc3c2=O)c1	·	·	·	·	15%	-2.7%	-36%	-7%
Cc1cccc2c(C(=O)O)c3cccc(C)c3nc12	3%	?	5%	-10%	·	·	·	·
Cc1ccc(S(=O)(=O)NCCC(=O)OCC(=O)Nc2ccccc2Cl)cc1	-6%	?	3%[46.1 µM]	2%	·	·	-10%	0%
CCn1c(SCC(=O)Nc2cc(C)on2)nnc1-c1ccccc1	5%	1%	2%	2%	-6%	2.9%	24%	16%
COCC(=O)N1CCCC(C(=O)c2ccc(Oc3ccccc3)cc2)C1 (centres undefined)	4%	-2%[46.1 µM]	-26%	-13%	·	·	-51%	-6%
O=C1c2ccccc2NC(c2cccs2)N1NS(=O)(=O)c1ccccc1 (centres undefined)	9%	?	?	-16%	·	·	·	2%
COc1ccccc1C(=O)OCc1cc(=O)n2nc(C3CCCCC3)sc2n1	·	·	?	?	2%	-2.5%	·	·
Cc1cccc(-c2nc3cc(NC(=O)COc4ccccc4F)ccc3o2)c1	·	-2%[46.1 µM]	7%[46.1 µM]	20%	23%	8.0%	·	·
CCCC(=O)n1nc(-c2ccccc2)nc1SC	·	·	·	25%	?	-0.9%	7%	2%
COc1cccc(CC(NC(C)=O)C(=O)NC2CCN(S(=O)(=O)c3ccc4ccccc4c3)CC2)c1 (centres undefined)	2%	5%	11%	·	?	-1.4%	5%	-9%
CCN(CC)c1cc(C)c2cc(NC(=O)c3ccccc3F)ccc2n1	-6%	-4%	·	-9%	·	·	-3%	-3%
Cc1cccc(C(=O)Oc2ccccc2C2C[C@]3(C)CC(=O)NC3N2C(=O)c2cccc(C)c2)c1 (some centres undefined)	5%	-23%	?	-1%	?	1.7%	11%	6%
COc1ccccc1N(C)S(=O)(=O)c1ccc(C(=O)N2CCCc3ccccc32)cc1	1%	?	?	0%	·	·	1%	-2%
Cc1ccc(C2=NN(C(=O)CCl)C(c3cccs3)C2)o1 (centres undefined)	-1%	?	?	14µM*	-8%	-4.5%	-26%	-28%
COc1cc2[nH]c(C(=O)N3CCN(c4ccccc4F)CC3)cc2c(OC)c1OC	5%	·	·	4%	·	·	-12%	1%
Cn1c(=O)oc2cc(S(=O)(=O)NC(Cc3ccccc3)C(=O)N3CCCCC3)ccc21 (centres undefined)	-5%	·	·	20%	-10%	-0.9%	-1%	3%
Cc1ccc(S(=O)(=O)Nc2cc(C)c(O)cc2C)cc1	1%	?	-13%[46.1 µM]	-3%	·	·	2%	1%
Cc1ccc(-c2cc(C(=O)Nc3cc(C)on3)c3ccccc3n2)c(C)c1	21%	0%	-16%	-21%	6%	-3.1%	-33%	-25%
CC(C)CN(C#N)c1nc(N2CCOCC2)nc(N2CCOCC2)n1	5%	?	13%	-24%	19%	2.5%	7%	4%
Cc1ccc(NC(=O)NC(=O)c2ccccc2)cc1F	-20%	26%	?	51%[activator]	·	·	-4%	-6%
O=C(c1ccc(F)c(S(=O)(=O)N2CCOCC2)c1)N(CCc1ccccc1)Cc1ccccc1	-4%	?	-2%	-20%	·	·	·	-6%
Cc1cccc(N2C(=O)CS/C2=N\NC(=O)c2ccc(Cl)cc2)c1C	-12%	22%	4%	-3%	-3%	-0.9%	8%	29%
Nc1nc(SCC(=O)Nc2ccc(OCc3ccccc3)cc2)n[nH]1	11%	·	·	42%[activator]	·	·	2%	0%
COc1cc(NS(=O)(=O)c2ccc(NC(=O)c3ccc(F)cc3)cc2)ncn1	2%	-3%	13%	29%	·	·	25%	0%
COc1ccc(-c2cn3cc(C)ccc3n2)cc1OC	?	?	?	-36%	23%	-3.1%	-19%	-10%
O=C(NCCc1ccc(F)cc1)c1n[nH]c2ccccc12	5%	?	-8%[46.1 µM]	33%[activator]	·	·	·	-2%
CCN(CCCNC(=O)c1c(C)oc2ncn(CC(C)C)c(=O)c12)Cc1ccccc1	·	·	15%[46.1 µM]	-12%	-16%	-1.0%	·	·
COc1ccc(CNC(=O)CCSc2ccc(F)cc2)cc1OC	3%	16%	8%	0%	·	·	-7%	2%
Cc1cc(S(=O)(=O)N2CCOCC2)ccc1OCC(=O)Nc1ccc(Br)cc1F	8%	11%[46.1 µM]	13%	-4%	·	·	0%	-2%
c1ccc(Cc2noc(CN3CCN(Cc4ccc5c(c4)OCO5)CC3)n2)cc1	7%	-16%[46.1 µM]	8%[46.1 µM]	12%	·	·	-1%	-2%
O=S(=O)(c1ccccc1)c1nc(-c2ccco2)oc1SCc1ccc(F)cc1	·	-2%[46.1 µM]	7%[46.1 µM]	-14%	-12%	-11%	·	·
CCc1cccc(OCCCCNCCCOC)c1	15%	?	-18%	-4%	8%	-3.1%	-14%	-21%
CCCCNC(=O)CSc1nc2c(sc(=S)n2-c2cc(Cl)ccc2OC)c(=O)[nH]1	11%	·	·	-25%	·	·	5%	-1%
Cc1nc(NC2=NCN(Cc3ccco3)CN2)nc2ccccc12	·	-3%	·	·	2%	-8.1%	0%	8%
CC(C)Oc1ccc(S(=O)(=O)N2CCCCC2)cc1NC(=O)CN1C(=O)NC2(CCCC2)C1=O	3%	-22%[46.1 µM]	17%	-3%	·	·	·	-5%
CCC(C(=O)Nc1ccccc1)n1nc(-c2cc(C)ccc2C)ccc1=O (centres undefined)	·	·	-5%[46.1 µM]	7%	3%	-7.1%	·	·
CCN1C(=O)c2ccccc2S(=O)c2ccc(C(=O)N3CCN(c4cccc(Cl)c4)CC3)cc21 (centres undefined)	·	-23%[46.1 µM]	-21%[46.1 µM]	-12%	9%	-0.2%	·	·
O=C(CSc1nnc(Nc2ccccc2)s1)NN1C(=O)NC2(CCCCC2)C1=O	7%	-5%	1%	2%	-8%	-8.2%	-10%	8%
Cc1cc(NC(=O)c2ccccc2)c(Cl)cc1N	6%	?	-29%[46.1 µM]	?	·	·	-4%	-2%

# (continued)
compound	RE007 growth inh	MARV entry inh	LASV entry inh	2A StopGo	Cruzain noTriton	Cruzain Triton	NS1 inh	SARS PLP yeast
O=C(COc1cccc(Cl)c1)Nc1ccc(N2CCOCC2)cc1	-19%	3%	13%	-7%	10%	-2.6%	-11%	4%
CCC1(C2=CCCCC2)C(=O)NC(=O)N=C1N (centres undefined)	-3%	-19%[46.1 µM]	13%[46.1 µM]	-2%	·	·	·	·
CN(C)c1nc(C#N)nc(N2CCOCC2)n1	-5%	-12%	1%	?	3.2µM*	4µM*	-17%	0%
Cc1cccn2c(=O)c3cc(C(=O)NCCC4=CCCCC4)n(C)c3nc12	2%	·	·	5%	·	·	4%	12%
C=CCN1C(=O)c2ccccc2NC1c1cc(Br)cs1 (centres undefined)	5%	7%[46.1 µM]	·	-20%	·	·	4%	1%
COc1ccccc1C(=O)Nc1nc(-c2ccccc2)ns1	·	?	?	43%[activator]	-8%	-1.4%	·	·
O=c1[nH]c(=O)n(Cc2ccc(F)cc2)c(O)c1C=NCC1CCCO1 (centres undefined)	9%	3%	2%	-5%	7%	4.3%	2%	2%
CCOC(=O)C1(C(=O)OCC)CCN(S(=O)(=O)c2ccccc2)CC1	13%	-20%	-25%	-13%	·	·	·	·
CCc1ccccc1NC(=O)C1CCCN(c2nnc(-n3c(C)ccc3C)s2)C1 (centres undefined)	·	3%[46.1 µM]	-14%[46.1 µM]	?	-6%	-4.5%	·	·
Cc1ccc(-n2nnnc2Sc2nc([N+](=O)[O-])nn2C)cc1	11%	?	?	?	-7%	1.7%	3%	24%
COc1ccc([N+](=O)[O-])cc1-n1cccc1	-1%	?	-3%	-6%	?	-4.1%	11%	29%
CCOC(=O)N1CCN(c2ccc(S(=O)(=O)N(Cc3ccccc3)Cc3ccccc3)cn2)CC1	12%	?	-26%	?	25%	1.0%	-36%	?
CCOc1ccc(N2CC(=O)SC2=S)cc1	-7%	-19%	-30%	·	-9%	2.7%	-164%	-2%
COC(=O)c1cc(NC(=O)c2cccc(C(F)(F)F)c2)c(=O)oc1C	14%	0%[46.1 µM]	7%	4%	·	·	-3%	-7%
Cc1ccc(-n2ccn(CC(=O)NCCc3ccccc3)c(=O)c2=O)cc1C	8%	·	14%[46.1 µM]	55%&34%[activator]	6%	-5.3%	-15%	-3%

# Compound activity: PubChem BioAssay, National Center for Advancing Translational Sciences (NCATS)
